Source: PubChem BioAssay (several laboratories)
Calb FLC: C. albicans growth modulation with fluconazole. growth inhibition, % (concentration not given with the values). C. albicans CaCi-2 (fluconazole-resistant clinical isolate) + fluconazole, Alamar Blue growth, 48 h. AID 1979. hit rate 0.57% among 300,000;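 active = most replicates above 75%; inconclusive = exactly half above 75%; inactive = most below 75%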;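 also: all wells also contain fluconazole at 8 µg/ml as a sub-toxic cotreatment; 0% = median of DMSO wells and 100% = median of geldanamycin control wells; wells of about 8 µL received 7.5 nL stock; the first replicate is given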
Bfl-1 A1 inh: inhibitors of the anti-apoptotic protein A1, read as caspase activation | MEF A1-2A-BIM cells, Caspase-Glo 3/7 luminescence, 3 h; percent of clofoctol response, vehicle zero | caspase activation, % (concentration not given with the values) | hit rate 0.066% among 330,000;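 active = over half of replicate activation scores above 10%, or exactly half above 10 with the replicate mean above 10; inconclusive = replicate mean below 10 yet half the replicates above 10; inactive = over half of replicates below 10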;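 also: wells of about 30 µL received 50 nL stock; many hits fall short of the cut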
RanGTP-Impb inh: disruptors of Ran-importin-beta complex formation – biochemical, FRET, CFP-Ran, YFP-importin-beta, homogeneous, primary screen. cell-free CFP-Ran/YFP-importin-beta FRET ratio. inhibition, % (concentration not given with the values). hit rate 1.1% among 300,000;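 active = most replicates above 15%; inconclusive = exactly half above 15%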;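 also: 0% = DMSO wells and 100% = Ran loaded with GDP instead of GTP; wells of about 40 µL received 100 nL stock; the first replicate is given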
Vif A3G: inhibitors of Vif binding to APOBEC3G peptide, primary screen, biochemical, TR-FRET, GST-Vif 1-94, biotin-A3G peptide, dose response retest (AID 1117319) | TR-FRET GST-Vif / biotin-A3G peptide binding; higher % means a stronger effect; test concentration not given here; strong numbers were not always called active | one-dose inhibition, %; IC50 in µM for titrated hits | hit rate 0.57% among 260,000;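 active = above the screen mean plus three standard deviations and confirmed in dose response; inconclusive = results disagree or hit not tested in dose response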;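 also: Vif residues 1-94 fused to GST binding biotinylated APOBEC3G peptide 110-148; 0% = full assay without inhibitor and 100% = GST in place of GST-Vif; retest series ran down from 100 µM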
MLL AF4-AF9 inh: inhibitors of human MLL-AF4/AF9 interaction | hit rate 0.47% among 350,000 | AlphaScreen, biotin-AF4 peptide binding to FLAG-AF9 | inhibition, % at 10 µM;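 active = every replicate reaching a set inhibition limit, whatever the replicate mean, cut at about 25% in these data; inconclusive = mean inhibition reaches that limit but some replicates miss it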;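 also: 0% = plate neutral control median and 100% = total signal loss; the record names both 10 and 1 µM as test concentration; the first replicate is given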
Target sequence (P42568 whole entry, looked up): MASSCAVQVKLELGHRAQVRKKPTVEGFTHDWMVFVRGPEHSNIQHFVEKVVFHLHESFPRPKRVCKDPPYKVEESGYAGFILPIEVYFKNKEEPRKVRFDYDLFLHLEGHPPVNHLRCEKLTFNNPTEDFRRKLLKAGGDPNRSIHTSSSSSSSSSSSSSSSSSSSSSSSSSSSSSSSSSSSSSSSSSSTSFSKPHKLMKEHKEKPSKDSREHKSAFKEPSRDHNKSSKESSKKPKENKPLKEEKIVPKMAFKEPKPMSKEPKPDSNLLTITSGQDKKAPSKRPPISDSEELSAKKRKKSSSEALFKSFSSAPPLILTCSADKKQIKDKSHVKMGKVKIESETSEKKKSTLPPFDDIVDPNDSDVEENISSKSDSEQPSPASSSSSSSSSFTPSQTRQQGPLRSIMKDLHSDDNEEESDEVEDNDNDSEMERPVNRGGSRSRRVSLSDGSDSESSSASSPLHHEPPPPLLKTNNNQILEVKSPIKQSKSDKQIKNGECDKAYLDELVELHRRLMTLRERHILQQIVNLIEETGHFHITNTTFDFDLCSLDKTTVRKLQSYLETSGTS
Beta cell apopt: blocks beta cell apoptosis. AID 435005. INS-1E cytokine-induced death, ATP luminescence, 48 h; percent of positive-control rescue, neutral wells zero. protection from apoptosis, % (concentration not given with the values). hit rate 0.8% among 300,000;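 active = all replicates at 75% or more, or half of them and the mean; inconclusive = half reach 75% but not the mean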;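 also: 0% = cytokine-treated negative control wells and 100% = positive control rescue; higher means more ATP so stronger rescue from cytokine killing; wells of about 40 µL received 100 nL stock; the first replicate is given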
T cruzi inh: blocks replication of Trypanosoma cruzi. hit rate 1.4% among 300,000. T. cruzi beta-gal in NIH3T3, luminescence, 90 h. AID 1885. inhibition, % (no concentration beside the values);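 active = mean inhibition across valid replicates above about 55%, limit read from the data; inconclusive = mean below that limit but half or more replicates reach it; inactive = mean below it, under half of replicates reach it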;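 also: signal also drops with host cell toxicity which is not excluded here; 0% = plate median of DMSO wells and 100% = zero luminescence signal; higher percent means less beta-gal luminescence so fewer parasites; stock transfer was 50 nL into about 50 µL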
Ecoli rRNA inh: inhibits bacterial ribosomal RNA function over humanized ribosomes. hit rate 1.6% among 350,000. GFP signal change (wild-type ribosome), % (concentration not given with the values). E. coli WT GFP vs humanized-ribosome RFP mutants, fluorescence, 24 h; hits give low values; DMSO median 0, no signal -100. AID 720706;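 active = significant combined selectivity score with lowered wild-type GFP, culture density cut under 30%, mutant RFP and density less affected; inactive = any of these conditions unmet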; also: one replicate is shown; some compounds called inactive have numbers as strong as hits
Ecoli rRNA inh OD600: further read-out of Ecoli rRNA inh, marked with its call; OD600 change, %; measured here: OD600 growth;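 optical density of the mix in the first replicate; 0 = DMSO median and -100 = no signal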
Ecoli rRNA inh RFP: further read-out of Ecoli rRNA inh, marked with its call; RFP signal change, %; measured here: RFP humanized mutant strains;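 first replicate; 0 = DMSO median and -100 = no signal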
Active calls of the source: *; ? = inconclusive; . = no result given; & = joins results of further samples. These rows are one share of the data; rates above refer to the full screens.

Every second line gives: Calb FLC | Bfl-1 A1 inh | RanGTP-Impb inh | Vif A3G | MLL AF4-AF9 inh | Beta cell apopt | T cruzi inh | Ecoli rRNA inh | Ecoli rRNA inh OD600 | Ecoli rRNA inh RFP
- FCCCOc1ccc(CN2CCN(c3ccccc3F)CC2)cc1
 : -22 | -0.8 | 0.2 | 6% | 2.1 | -4 | 28 | -26 | -36 | 11
- Cc1ccc2oc(=O)n(CCCOc3ccccc3C)c2c1
 : -1 | 0.0 | 8.5 | -8% | -2.7 | -9 | -3 | -19* | 5.3* | -2.3*
- Cc1cc(C(F)F)n2ncc(C(=O)N3CCCCC3)c2n1
 : 12 | 1.5 | -2.1 | 10% | . | 0 | 0 | . | . | .
- Clc1cccc(CON/C=N/c2ncnc3sccc23)c1
 : 12 | 1.2 | -2.7 | -6% | . | 3 | 10 | . | . | .
- O=C(NCc1cccc(C(F)(F)F)c1)c1ccc(=O)[nH]c1
 : 0 | 0.4 | ? | . | -0.9 | 0 | -2 | 1 | 6 | -0.6
- Cc1ccc(F)c(NC(=O)c2c(-c3ccccc3)noc2C)c1
 : 4 | 1.0 | 1.3 | -8% | -1.8 | 4 | -1 | -19 | -14 | -2.7
- COc1cc(OC)cc(C(=O)Nc2ccc(S(=O)(=O)N(C)C)cc2)c1
 : -2 | -0.1 | 0.1 | 3% | . | -3 | 7 | . | . | .
- CCOC(=O)c1c(C)n(C)c2cc(-c3ccc(F)cc3)c(O)cc12
 : -11 | 0.2 | -0.5 | 11% | . | -1 | 17 | . | . | .
- CC1CN(S(=O)(=O)c2ccc(C(=O)NCCCn3ccnc3)cc2)CC(C)O1 (stereo not given)
 : -3 | -1.4 | -0.7 | -11% | 1.5 | 113* | 2 | 21 | 12 | 1.2
- Cc1csc(NC(=O)c2nc3nccc(C)n3n2)n1
 : -6 | -1.5 | -0.3 | -4% | . | 1 | -5 | . | . | .
- Cc1c(NC(=O)C(C)OC(=O)c2cc(Cl)nc(Cl)c2)c(=O)n(-c2ccccc2)n1C (stereo not given)
 : 9 | 0.0 | 0.8 | . | 0.9 | -2 | -9 | -3 | 11 | -0.3
- Cc1cc(C)n(-c2ccc(C(=O)OCC(=O)N3CCN(c4ccccc4)CC3)cc2)n1
 : . | 2.4 | . | . | 1.4 | -3 | . | 1 | -4 | 1.4
- COc1ccccc1N1CCN(c2ccnc3cc(Cl)ccc23)CC1
 : -1 | 0.4 | 6.5 | 13% | 4.7 | 38 | -41 | -10 | -30 | 1.2
- O=C(Nc1ccc(N2CCN(c3ccccc3)CC2)c(F)c1)C1CC1
 : 4 | 0.5 | 1.0 | 4% | 0.1 | -2 | -3 | 14 | 21 | 3.2
- O=C(c1ccoc1)N1CCC2(CC1)Oc1ccc(Cl)cc1C(=O)C21CC(c2ccc(Cl)cc2)=NO1 (stereo not given)
 : 2 | -0.2 | -2.0 | 32% | . | -5 | 19 | . | . | .
- OCCC1CN(Cc2cccn2-c2ccccn2)CCN1Cc1ccccc1 (stereo not given)
 : ? | 0.6 | 9.2 | 10% | . | 2 | 7 | 0 | -3 | -5.3
- Cc1ccc2oc(C(=O)Nc3cc(C)on3)c(C)c2c1
 : . | -11 | . | -12% | -4.6 | 0 | . | 4 | 15 | -1.1
- CC1CCCN(c2nc3ccsc3c(=O)s2)C1 (stereo not given)
 : -6 | -0.6 | 0.7 | -2% | . | -1 | 14 | . | . | .
- CC1CCCN(C(=O)COC(=O)c2n[nH]c3ccccc23)C1 (stereo not given)
 : -2 | 0.7 | 2.9 | 29% | . | -3 | 2 | . | . | .
- C=CCN1C(=O)C(Cc2ccc(OCC)cc2)S/C1=N\N=C\c1cccs1 (stereo not given)
 : -5 | 0.3 | 4.9 | -2% | . | 1 | 6 | . | . | .
- O=C(NCC(c1ccco1)N1CCCCC1)c1ccc(S(=O)(=O)Nc2ccccc2Cl)cc1 (stereo not given)
 : . | 0.8 | . | . | -1.4 | 0 | . | -7 | -13 | 2.5
- CC1Nc2ncnc(N3CCOCC3)c2N(Cc2ccccc2)C1=O (stereo not given)
 : 7 | 0.0 | 2.0 | . | 4.9 | -8 | -8 | 4 | 8 | 3.6
- Cc1cc(C)c(C)c(S(=O)(=O)Nc2ccccc2C(=O)O)c1C
 : -2 | 0.9 | -2.1 | 2% | -3.1 | -8 | -12 | -32 | -55 | -3.0
- COc1ccc(NC(=O)N(C)C[C@H]2Oc3c(NC(=O)Nc4ccc5c(c4)OCO5)cccc3C(=O)N([C@H](C)CO)C[C@@H]2C)cc1
 : . | 0.0 | . | . | 2.0&8.1 | -3 | . | -1&5 | 2&-9 | -0.5&2.5
- CN(CC(=O)Nc1ccc(Cl)c(C(F)(F)F)c1)C(=O)Cc1n[nH]c(=O)c2ccccc12
 : 0 | 0.8 | -0.4 | 7% | -1.1 | 37 | -19 | -21 | -22 | -6.1
- O=C(CSc1nnc(COc2ccc(Br)cc2)o1)N1CCOCC1
 : 21 | 1.0 | ? | . | -1.4 | -2 | 2 | 13 | 5 | 5.3
- COc1ccc(NC(=S)N(CCN(C)C)C(C)c2ccncc2)cc1Cl (stereo not given)
 : 6 | -0.4 | 1.9 | 11% | 5.2 | -8 | 8 | -1 | -5 | -6.9
- COc1ccccc1CN1CCCC(N2CCN(c3ccccc3OC)CC2)C1 (stereo not given)
 : -4 | 1.6 | 2.1 | . | 8.7 | -50 | 31 | -3 | -1 | -1.2
- CCOC(=O)c1ccccc1NC(=O)c1ccccc1SC
 : 3 | 0.6 | -2.3 | -3% | . | -3 | 18 | . | . | .
- COc1ccccc1NC(=O)N(c1c(N)n(Cc2ccccc2)c(=O)[nH]c1=O)C1CCCC1
 : 9 | 0.2 | 1.4 | 1% | . | -2 | -12 | . | . | .
- Cn1c(=O)c2cc(S(=O)(=O)N3CCN(c4cccc(C(F)(F)F)c4)CC3)ccc2n(C)c1=O
 : 7 | 0.6 | 2.8 | ? | . | -2 | 4 | . | . | .
- CCOC(=O)c1ccc2c(c1)N(CC#N)C(=O)C(C)(C)O2
 : 13 | -0.5 | ? | -12% | -1.1 | -3 | -22 | 4 | 12 | -7.2
- COc1ncnc(OC)c1NC(=O)c1ccc(F)cc1
 : -4 | 0.2 | 5.5 | 15% | . | -2 | 0 | . | . | .
- O=C(/C=C/c1ccc(OCc2c(F)cccc2Cl)cc1)N1CCOCC1
 : 22 | 0.1 | 1.2 | 3% | 4.1 | 4 | 17 | -49 | -73 | -14
- CCC(C)C(NC(=O)C1CCC(C)CC1)C(=O)Nc1ccc(OC)cc1OC (stereo not given)
 : -5 | 0.0 | 0.9 | . | 8.3 | 2 | 16 | 2 | -8 | -1.5
- C/C(CCc1ccc2c(c1)OCO2)=N\NC(=S)NC(C)C
 : 3 | -0.4 | 13 | 0% | 3.2 | -1 | 17 | 16 | 8 | 5.5
- CC(C)(Oc1ccc(Cl)cc1)C(=O)OCC(=O)Nc1ncc(Cl)cc1Cl
 : 6 | -0.4 | 3.6 | -14% | . | 0 | -4 | . | . | .
- CCOc1nc(C)cc(C)c1S(=O)(=O)c1cccc(Cl)c1
 : 5 | 1.2 | ? | -3% | -2.2 | -1 | 24 | -39 | -63 | -12
- CCOC(=O)C[C@H]1c2cc(F)ccc2S(=O)(=O)N1c1cccc(OC)c1
 : 20 | 0.0 | -4.6 | . | 0.8 | 3 | -5 | -3 | -7 | 1.9
- CSc1ccc(/C=N/NC(=O)c2cccs2)cc1
 : 4 | -8.5 | 1.4 | -6% | -1.7 | -4 | 3 | 4 | 10 | 2.4
- Cc1ccc(-c2nc(NCCN(C)C)c3ccccc3n2)cc1
 : -7 | 0.1 | -1.4 | . | 0.3 | 13 | 17 | 3 | 16 | 0.5
- CN1C(=O)N(C)C(c2ccccc2Cl)C2=C1CC(C)(C)CC2=O (stereo not given)
 : -7 | 0.5 | -1.7 | . | 5.3 | -6 | 1 | 2 | 4 | -1.6
- COC(=O)c1ccccc1N/C=C/C(=O)c1ccc(Br)cc1
 : -10 | -3.3 | -1.1 | . | 0.6 | -9 | 13 | 3 | -12 | -2.6
- CCc1noc(C)c1C(=O)NC1CCCc2c1cnn2-c1ccc(C(C)(C)C)cc1 (stereo not given)
 : 3 | 1.2 | 4.2 | . | -0.1 | 6 | 25 | 9 | 4 | 0.0
- C[C@H](CO)N1C[C@H](C)[C@@H](CN(C)C(=O)Nc2ccc(C(F)(F)F)cc2)Oc2c(NS(=O)(=O)c3ccccc3)cccc2C1=O
 : . | 1.0 | . | . | -5.1&-5.9 | -5 | . | -6&6 | -7&2 | -2.6&0.5

Whole records as entered above. Values in the order: Calb FLC | Bfl-1 A1 inh | RanGTP-Impb inh | Vif A3G | MLL AF4-AF9 inh | Beta cell apopt | T cruzi inh | Ecoli rRNA inh | Ecoli rRNA inh OD600 | Ecoli rRNA inh RFP
CCOC(=O)C[C@H]1c2cc(F)ccc2S(=O)(=O)N1c1cccc(OC)c1 is entered as 20 | 0.0 | -4.6 | . | 0.8 | 3 | -5 | -3 | -7 | 1.9
C/C(CCc1ccc2c(c1)OCO2)=N\NC(=S)NC(C)C is entered as 3 | -0.4 | 13 | 0% | 3.2 | -1 | 17 | 16 | 8 | 5.5

Later entries
Every second line gives: Calb FLC | Bfl-1 A1 inh | RanGTP-Impb inh | Vif A3G | MLL AF4-AF9 inh | Beta cell apopt | T cruzi inh | Ecoli rRNA inh | Ecoli rRNA inh OD600 | Ecoli rRNA inh RFP
- COc1ccc(CC(=O)Nc2c3c(nn2C(C)(C)C)CS(=O)C3)cc1 (stereo not given)
 : -10 | 0.0 | -7.4 | 5% | 4.0 | -5 | -3 | 8 | 5 | -2.0
- COc1ccc(C)cc1S(=O)(=O)N1CCc2ccccc2C1
 : -15 | -0.8 | ? | -8% | -12 | -14 | 9 | -20 | -27 | -2.4
- CNS(=O)(=O)c1ccc2c3c(cccc13)C(=O)N2
 : 2 | 0.4 | 12 | . | -1.9 | . | -15 | -5 | 10 | 3.0
- CCCCn1c(N)c(N(CCOC)C(=O)C2CCN(C(=O)c3ccc(Cl)cc3)CC2)c(=O)[nH]c1=O
 : -7 | 0.6 | 1.1 | -3% | -1.9 | 1 | 9 | 4 | 1 | 0.5
- C[C@H]1COC(=O)[C@H](CC(=O)OC(C)(C)C)C/C=C\C[C@@H](CC(=O)N[C@@H](CO)Cc2ccccc2)C(=O)N1
 : . | 0.5 | . | . | -0.1 | 1 | . | -7 | 3 | 2.3
- Cc1ccc(NC(=O)CSCC(=O)Nc2ccccc2C(=O)N2CCCCC2)cc1
 : 1 | 0.4 | 2.7 | -10% | 12 | -5 | 9 | 7 | 5 | -1.2
- O=C(NC1CCN(S(=O)(=O)c2ccccc2)CC1)c1ccc(F)cc1
 : -2 | 0.7 | 2.0 | . | -8.8 | 5 | -1 | 13 | 15 | 0.3
